# From PubChem
# CtBP-E1A blk – CtBP/E1A binding inhibition; AID 651724; AlphaScreen GST-E1A/His-CtBP binding, 1536-well; active compounds read low; control for the full effect not named in the record; activity change, % (concentration not given with the values); 0.49% of 340,000 active; in the data active means activity change below about -65%; inconclusive means about -30% to -65%; inactive means above about -30%; further: on the % scale 0 is the no-effect control and ±100 the full control effect
#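 AlphaScreen with 125 nM GST-E1A and 125 nM His-CtBP (5X stocks) in Tris pH 8.0, 300 mM NaCl, BSA, Tween 20, TCEP. Compounds preincubated 2 h at 37 deg C, then glutathione donor/nickel acceptor beads added for 1 h at 37 deg C in dark.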
# Six1-Eya2 inh – blocks human Six1 binding to Eya2. Q15475+O00167. AlphaScreen GST-Six1/His-Eya2 binding, biochemical; active compounds read low; control for the full effect not named in the record. activity change, % (test concentration not listed). 0.56% of 360,000 active. AID 651725; in the data active = activity change below about -65%; inconclusive = about -30% to -65%; inactive = above about -30%; further: on the % scale 0 is the no-effect control and ±100 the full control effect
# Target sequence (O00167 whole entry, looked up): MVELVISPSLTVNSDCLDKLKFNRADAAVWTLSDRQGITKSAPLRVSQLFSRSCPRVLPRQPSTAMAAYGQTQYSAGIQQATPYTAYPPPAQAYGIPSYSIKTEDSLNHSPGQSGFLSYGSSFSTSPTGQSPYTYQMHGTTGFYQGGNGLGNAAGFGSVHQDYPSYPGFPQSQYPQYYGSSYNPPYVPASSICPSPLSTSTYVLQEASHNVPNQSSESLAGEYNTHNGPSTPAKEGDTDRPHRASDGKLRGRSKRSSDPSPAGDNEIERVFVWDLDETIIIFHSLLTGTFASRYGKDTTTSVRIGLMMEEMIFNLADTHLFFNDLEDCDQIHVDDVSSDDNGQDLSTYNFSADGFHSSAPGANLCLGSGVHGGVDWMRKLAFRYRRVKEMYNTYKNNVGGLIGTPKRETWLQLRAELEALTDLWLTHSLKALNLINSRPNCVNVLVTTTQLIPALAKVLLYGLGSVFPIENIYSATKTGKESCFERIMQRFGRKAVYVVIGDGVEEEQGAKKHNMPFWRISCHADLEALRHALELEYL
# Target sequence (Q15475 whole entry, looked up): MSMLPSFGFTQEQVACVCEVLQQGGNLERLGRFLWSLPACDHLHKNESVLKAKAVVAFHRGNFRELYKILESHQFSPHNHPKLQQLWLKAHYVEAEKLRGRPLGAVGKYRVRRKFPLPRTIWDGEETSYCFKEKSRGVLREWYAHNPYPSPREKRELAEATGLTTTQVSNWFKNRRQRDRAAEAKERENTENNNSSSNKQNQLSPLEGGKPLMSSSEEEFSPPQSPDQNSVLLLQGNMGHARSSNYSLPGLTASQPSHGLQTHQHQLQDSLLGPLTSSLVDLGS
#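 AlphaScreen luminescence read after one hour at 37 °C in darkness. Pin-transferred compounds met GST-Six1 and His-Eya2 protein (5X stock 250 nM/500 nM) plus glutathione donor and Ni-chelate acceptor beads (5X, 50 ug/mL).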
# TRPML1 inh – blocks the human TRPML1 channel; activity change, negative = inhibition, % (test concentration not listed); Q9GZU1; TRPML1-inducible cells, Ca2+ dye fluorescence, FDSS; active compounds read low; inhibition of EC80 agonist-evoked calcium signal; AID 624415; 0.02% of 390,000 active; in the data active means activity change below about -50%; inconclusive means about -30% to -50%; inactive means above about -30%;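 further: stimulus is agonist 54-4 at its EC80 concentration; on the % scale 0 is the no-effect control and ±100 the full control effect; compound concentration not given in the record; the text of the record puts the active cut at -80%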
#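 TRPML1-DL cells, Tet-induced overnight (~16 h, 37 °C) at 1,500 cells/well, were loaded with Ca8 no-wash dye plus quencher for 45-90 min at room temperature. Compounds were pinned during FDSS kinetic reading; agonist 54-4 at EC80 (4 uM final) then added.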
# D2 agonist – agonists of human D2 dopamine receptor (beta-arrestin); DiscoveRx PathHunter D2 beta-arrestin, luminescence, 90 min; 100% = 57 uM dopamine signal; AID 624465; P14416; activation, % (no concentration beside the values); 0.084% of 360,000 active; in the data active = activation above about 40%; inconclusive = about 15% to 40%; inactive = below about 15%; further: compound concentration not given in the record; the text of the record calls up to 30% inactive
#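 DiscoveRx PathHunter D2 beta-arrestin cells (2,100/well) attached overnight, then compound-stimulated 90 min at 37 C in HBSS/10 mM HEPES/0.1% Tween-20 buffer; beta-galactosidase complementation read by luminescence after 1 h at ambient temperature. Dopamine 57 uM final (EC100) as control.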
# TRPML1 agonist – activates the human TRPML1 channel. Q9GZU1. TRPML1-expressing cells, Ca2+ dye fluorescence, FDSS; host cell line not named in the record; reference of the full effect not given here. activation, % (no concentration beside the values). 0.12% of 410,000 active. AID 624414; in the data active = activation above about 50%; inconclusive = about 30% to 50%; inactive = below about 30%; further: 0% is about no effect; the text of the record puts the active cut at 80%
#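 Calcium fluorescence on an FDSS kinetic reader gave the read-out. Tet-induced TRPML1-DL cells were plated overnight, dye-loaded (Ca8 with quencher, 45-90 min, room temperature, dark), then read 110 s after compound addition, and again 110 s after 4uM final 54-4 (EC80).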
# PINK1 expr mod – changes PINK1 expression; PINK1 immunofluorescence, high-content cytometry, 24 h; Potency, µM (titrated, usually from 76.6 µM), for the others: top-dose activation (PINK1 increase), usual class: activators; 0.2% of 410,000 active; AID 624263; active = well fitted activation curve with a large enough effect; inconclusive = small, poorly fitted or top-dose-only effect; inactive = flat fitted curve, though single readings scatter; cell line not stated here;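 further: potency means the concentration at half of the fitted maximal effect; % of control where 0% means no effect; nearly all actives have a fitted effect of over 65% in size; a mitochondrial uncoupler was the plate control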
#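 Decision-based qHTS: stable cells, 24 h exposure to five compound concentrations, CCCP as control. Fixed cells stained for PINK1 plus nuclear, mitochondrial and cell markers, cytometer read.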
# An asterisk follows results filed as active; ? = inconclusive; . = not tested or not shown; [ ] = remark or other dose.
SMILES,CtBP-E1A blk,Six1-Eya2 inh,TRPML1 inh,D2 agonist,TRPML1 agonist,PINK1 expr mod
COc1cc(C(=O)NCCc2ccc(F)cc2)ccc1OCC(=O)N1CCOCC1,0,8,9,-3.5,1.2,5.8%
CN1CCCC(OC(=O)c2ccccc2F)C1 (stereo not drawn),5,-3,-2,-2.4,0.1,0.6%
O=C(Nc1c(C(=O)Nc2ccccc2F)oc2ccccc12)c1cc2ccccc2o1,.,.,3,.,0.4,0.6%
COc1ccc(C(Cl)=C(c2ccc(OC)cc2)c2ccc(OC)cc2)cc1,3,-1,-7,-3.9,0.3,2.1%
Cc1ccc2nc(-c3cccc(NC(=O)c4cccc5c(Cl)cccc45)c3)oc2c1,.,.,4,.,1.1,-0.2%
Cc1ccc(C)c(OCC(=O)Nc2cccc(S(=O)(=O)NC3=NCCCCC3)c2)c1,0,2,2,-0.2,1.9,3.9%
COc1ccc(-c2nc(CS(=O)(=O)CC(=O)NCCc3ccccc3)c(C)o2)cc1,2,3,1,-2.1,-0.9,2.7%
Cc1cc(NS(=O)(=O)c2ccc(NC(=O)c3ccco3)cc2)nc(C)n1,0,-4,22,-2.5,-0.9,2.9%
COc1ccc(CN2C(=O)c3ccccc3C2=O)cc1C(=O)OC(C)C(=O)NC(N)=O (stereo not drawn),-15,-2,-1,-3.2,0.6,1.5%
Cc1cc(C)nc(SCc2cn3cc(Cl)ccc3n2)n1,1,3,-9,-1.6,-1.3,1.8%
Cc1c(-n2c(SCC(=O)C(C)(C)C)nc3ccccc3c2=O)c(=O)n(-c2ccccc2)n1C,7,1,-12,-4.1,-1.2,0.2%
CC(NC(=O)CCc1nnc(C2CCCCC2)o1)c1ccc(F)cc1 (stereo not drawn),0,6,-3,-3.2,0.0,2.7%
CCC(CC)NC(=O)COC(=O)c1cccc(C)c1O,1,10,1,-1.5,0.0,-0.2%
O=S(=O)(Nc1cccc(S(=O)(=O)N2CCCCC2)c1)c1ccccc1F,0,-2,-12,6.4,-0.2,-1.0%
Cc1ccc(-c2ccc(CN3C(C(C)C)C(=O)N(Cc4cn(CC5CCCCC5)nn4)CCS3(=O)=O)cc2)cc1 (stereo not drawn),-24,0,-11,-2.7,1.5,0.3%
CC(=O)Nc1ccc(CN2CCN(CCC(C)C)C(CCO)C2)cc1 (stereo not drawn),3,16,-4,-0.2,-0.7,-0.6%
COc1ccc(-c2sc3ccc(N4CCOCC4)cc3c2C#CC2(O)CCCCC2)cc1,0,-1,84,-0.8,0.2,15%
CCN(CC(=O)Nc1ccccc1OC)C(=O)C1CCCC1,6,-1,0,-1.5,4.5,-1.6%
CC1CN(Cc2cn(C)nc2-c2ccc(Oc3ccccc3)cc2)CCN1C (stereo not drawn),-22,-12,0,0.0,1.1,0.7%
CN1N=C(C(C)(C)C)CC1=O,-4,5,-23,4.2,-0.2,-0.2%
COc1ccc(NC(=S)Nc2ccccc2SC)c(OC)c1,1,-12,2,-0.4,-0.8,0.0%
Cc1ccc(NC(=S)NCCN2CCOCC2)cc1C,-2,-1,0,-0.3,0.1,-1.2%[38.3 µM]
CN(C)CCCC(C)(O)C(Cc1ccccc1)c1ccccc1 (stereo not drawn),8,3,0,-5.8,-0.9,1.6%
CC1Cc2cc(S(=O)(=O)N3CCN(c4ccccc4F)CC3)ccc2N1C(=O)C1CC1 (stereo not drawn),-3,-8,13,-2.9,-1.0,1.3%
O=C(NC1CCCCCCC1)c1ccccc1O,8,12,-3,-2.3,0.7,?

# Overlap with the part before: 6 compounds, followed by the next part.
SMILES,CtBP-E1A blk,Six1-Eya2 inh,TRPML1 inh,D2 agonist,TRPML1 agonist,PINK1 expr mod
CN1N=C(C(C)(C)C)CC1=O,-4,5,-23,4.2,-0.2,-0.2%
COc1ccc(NC(=S)Nc2ccccc2SC)c(OC)c1,1,-12,2,-0.4,-0.8,0.0%
Cc1ccc(NC(=S)NCCN2CCOCC2)cc1C,-2,-1,0,-0.3,0.1,-1.2%[38.3 µM]
CN(C)CCCC(C)(O)C(Cc1ccccc1)c1ccccc1 (stereo not drawn),8,3,0,-5.8,-0.9,1.6%
CC1Cc2cc(S(=O)(=O)N3CCN(c4ccccc4F)CC3)ccc2N1C(=O)C1CC1 (stereo not drawn),-3,-8,13,-2.9,-1.0,1.3%
O=C(NC1CCCCCCC1)c1ccccc1O,8,12,-3,-2.3,0.7,?
CCOc1cc(N2CCOCC2)c(OCC)cc1NC(=O)CN1C(=O)NC2(CCc3ccccc32)C1=O (stereo not drawn),-1,-2,-4,-3.1,-0.7,-0.4%
O=C(CSc1nc2ccc(Cl)cc2[nH]1)c1cccs1,.,-2,-1,-8.1,0.8,2.4%
Cc1nc(SCC(=O)NC(=O)NCCC(C)C)c2c(-c3cccs3)csc2n1,1,10,-4,-0.9,0.9,8.3%
Cc1ccccc1CCNC(=O)CCn1nc(C)c2c(C)n(-c3ccccc3)nc2c1=O,-2,-6,5,8.3,1.0,2.1%
Cc1cccc(C)c1NC(=O)c1ccccc1C(=O)O,0,5,-2,0.1,-0.5,1.3%
Cc1onc(-c2ccccc2)c1-c1nnc(CN2CCN(S(=O)(=O)c3ccccc3F)CC2)o1,2,0,-16,3.9,0.5,0.4%
CCOc1ccccc1NC(=O)C(CC)Sc1nc2ccsc2c(=O)n1CCC(=O)O (stereo not drawn),.,4,-6,-1.2,1.5,0.6%
COc1ccc(NC(=O)c2ccc(-n3cncn3)c([N+](=O)[O-])c2)cc1,0,17,19,-0.8,-0.2,-1.0%
Nc1ccccc1-c1ccccc1N,6,-3,0,1.4,-0.6,-4.8%
Cn1cc(S(=O)(=O)Nc2cccc(F)c2)c(=O)n(C)c1=O,-1,1,-9,0.4,0.0,-0.3%
COc1ccc(Cl)cc1C(=O)NCc1nc(-c2cccc(C)c2)no1,.,.,8,.,0.9,6.8%
O=C(NCC1CCCO1)c1cccc(-n2cnnn2)c1 (stereo not drawn),10,2,-1,-3.4,0.6,-0.3%
O=C(COC(=O)[C@H](Cc1ccccc1)NC(=O)c1ccco1)Nc1ccccc1,.,2,15,0.1,-1.2,0.4%
COc1ccccc1NC(=O)C(Cc1ccccc1)NS(=O)(=O)c1cccc2nsnc12 (stereo not drawn),.,.,19,.,0.5,0.7%
COC(=O)C1=NNC(C(=O)c2ccco2)C1c1ccc(OC)cc1 (stereo not drawn),9,5,-15,-5.8,0.2,0.0%
CN1OC(CC(=O)O)N(c2ccc(Cl)cc2)C1=O (stereo not drawn),5,6,4,-3.4,0.4,0.0%
O=C(c1ccco1)N1CCN(C(=S)NC2CC3CCC2C3)CC1 (stereo not drawn),4,-1,10,-1.1,-0.5,4.4%
COc1ccc(CCNC(=O)CCc2cn(C)c3ccccc23)c(OC)c1OC,-11,-11,1,-1.6,0.0,2.1%
O=C(Nc1ccc(F)cc1)N1CCN(CCc2ccccc2)CC1,0,6,3,-2.9,0.7,-0.9%
CSc1nc(C)c(C(=O)Nc2ccccc2)c(-c2ccco2)c1C#N,2,4,13,0.6,1.7,1.2%
CCc1ccc(CN2CCC(N3CCC(C(=O)N4CCCC4)CC3)CC2)o1,2,-4,-8,-1.4,-0.5,0.9%
O=C(CSc1nncs1)NC(=O)NC1CCCC1,.,7,-24,-7.0,0.5,1.4%
COc1ccc(-c2noc(CN(C)Cc3ccc(C)o3)n2)cc1,-4,-5,-1,-3.1,0.5,0.6%
O=C(O)C1CC=CCC1C(=O)NCCCN1CCCC1=O (stereo not drawn),0,-1,12,-5.6,-0.3,-0.7%
CC(C)CCCCCCCCCCCCC(=O)NCC(=O)NC1C(O)C(O)C(Nc2ncnc3nc[nH]c23)OC1C(O)CO (stereo not drawn),0,10,-10,1.0,0.1,-5.9%
# More entries:
SMILES,CtBP-E1A blk,Six1-Eya2 inh,TRPML1 inh,D2 agonist,TRPML1 agonist,PINK1 expr mod
O=C(O)CCc1ccc(-c2ccccc2)n1-c1cccc(Br)c1,.,.,-3,.,0.4,-0.8%
CCc1nnc(NC(=O)CN2C(=O)/C(=C/c3cc(OC)c(OC)c(OC)c3)SC2=S)s1,-24,-7,-14,-5.2,-0.3,9.7%
COc1cccc(C(=O)Cn2c(N3CCCCC3)nc3c2c(=O)n(C)c(=O)n3C)c1,-1,1,4,-0.7,2.5,30%[38.3 µM]
N#CCSc1ccccc1NC(=O)COC(=O)CCN1C(=O)C2CC=CCC2C1=O (stereo not drawn),-15,6,-24,0.4,0.2,1.1%
C=CCN(CC=C)C(=O)Nc1ccc2nc(C)sc2c1,9,0,1,-0.3,-0.9,6.4%
Clc1ccc(Nc2c(-c3ccccc3Cl)nc3ccc(Cl)cn23)cc1,.,.,3,.,2.0,?
CCc1ccc(C2=NN(CCC(=O)NC(C)c3ccc4c(c3)OCCO4)C(=O)CC2)cc1 (stereo not drawn),2,9,-3,-3.8,0.2,0.5%
CCSCc1nnc(SCC(=O)Nc2ccc(OC)cc2)n1C,0,12,-10,-6.7,-0.3,0.4%
CCCCOC(=O)Nc1nc(C)c(C(=O)OCC)s1,-3,11,11,0.2,0.5,12%
CCn1c(=O)c2cc(C(=O)NCCOC)sc2c2ccccc21,1,-3,-17,-2.4,-0.7,0.5%
CCc1ccc2nc(N3CCN(C(=O)C(C)(C)C)CC3)sc2c1,.,7,-10,6.2,-0.5,0.5%
Cc1ccc(NC(=O)CN(C)C(=O)CSc2ccc3c(c2)OCCO3)cc1,4,-1,34,5.7,5.1,-0.4%
Cc1cc(C)n2nc(S(=O)(=O)N(C)c3ccccc3)nc2n1,-3,3,-1,-6.8,0.9,0.4%
O=C(CSc1nc2c(c(=O)n1-c1ccc(Br)cc1)SCC2)Nc1nccs1,-8,-8,-22,-1.6,-0.1,15%
COc1cc2[nH]c(=O)n(CCC(=O)NCCC(C)C)c(=O)c2cc1OC,0,-3,1,-3.9,0.0,-1.4%
Brc1cccc(OCCOCCn2ccnc2)c1,-12,-5,4,3.9,-0.6,-1.4%
CCOC(=O)[C@]12CCC=C1N(Cc1ccc3c(c1)OCO3)C(=O)[C@H](CC(=O)N1CCOCC1)C2,1,-5,.,.,-0.7,0.0%
Cc1ccc2nsnc2c1S(=O)(=O)N(CCO)Cc1cc2cc3c(cc2[nH]c1=O)OCCO3,-16,-2,-5,-0.5,1.6,1.5%[38.3 µM]
O=C(c1cc(Cl)ccc1[N+](=O)[O-])N1CCc2ccccc2C1,-1,-2,-2,0.2,-0.9,-2.3%
Cc1cccc(NS(=O)(=O)c2ccc(-c3ccc(=O)[nH]n3)o2)c1,-7,-2,12,3.7,0.2,0.0%
CC(O)c1c(OCc2ccccc2)ncnc1OCc1ccccc1 (stereo not drawn),45,44,14,1.6,0.4,1.0%
CSc1nnc(Cc2cc(=O)[nH]c(=O)[nH]2)n1-c1cccc(C)c1,6,4,-11,-1.4,0.0,0.6%
Cc1cc(-c2cc(C(=O)O)c3ccccc3n2)c(C)s1,5,3,-13,1.3,-0.3,0.4%
